# NS1 inh: qHTS Assay for Inhibitors of Influenza NS1 Protein Function; AID 2326, 2010; S. cerevisiae slowed by influenza A NS1, growth recovery by OD600; Potency, µM (series often up to 46.1 µM), inactives show at the highest dose activity, positive = more growth; 0.4% of 270,000 active; further: actives are rising curves; nearly all actives have a fitted effect of over 50% in size
#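 Recovery from NS1-induced slow growth read by OD600 in budding yeast switched to galactose assay medium (pH 6.0, -URA) at 1:100 dilution. Compound 23 nl per well; the matching strain lacking NS1 serves as control.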
# Cruzain inh Det: qHTS Assay for Promiscuous and Specific Inhibitors of Cruzain (with detergent); Cruzipain (Trypanosoma cruzi), P25779; purified cruzain, Z-FR-AMC fluorescence, 0.01% Triton; Potency, µM, for the others: max response, negative = inhibition, usual class: inhibitors; 0.43% of 200,000 active; active means well fitted curve in the direction sought with a large enough effect; inconclusive means small, poorly fitted or top-dose-only effect, or another doubt; inactive means no such curve, though single readings can be large; an effect the other way counts as inactive or inconclusive;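 further: plate controls were neutral wells for no effect and buffer without enzyme for full effect; nearly all actives have a fitted effect of over 40% in size; top concentration of the series not given in the record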
# Target sequence (P25779 123-467 limits assumed): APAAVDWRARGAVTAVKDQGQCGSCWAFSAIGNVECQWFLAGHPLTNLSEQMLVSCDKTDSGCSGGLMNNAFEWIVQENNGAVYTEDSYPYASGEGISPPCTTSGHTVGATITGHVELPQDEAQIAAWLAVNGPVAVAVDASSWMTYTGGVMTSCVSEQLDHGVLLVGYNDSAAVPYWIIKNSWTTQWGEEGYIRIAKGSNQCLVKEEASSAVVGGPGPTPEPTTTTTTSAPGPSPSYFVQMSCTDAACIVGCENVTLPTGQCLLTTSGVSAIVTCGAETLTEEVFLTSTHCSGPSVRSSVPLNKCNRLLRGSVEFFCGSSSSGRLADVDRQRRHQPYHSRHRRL
#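 Enzyme 1.5 nM, Z-FR-AMC 2 uM, NaOAc 100 mM pH 5.5, DTT 5 mM, Triton X-100 0.01%; 15 min RT compound preincubation; kinetic ex360/em450, 60 s delta.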
# Cruzain inh noDet: qHTS Assay for Promiscuous and Specific Inhibitors of Cruzain (without detergent) | Potency, µM, for inactives: max response, negative = inhibition, actives largely listed as inhibitors | 2.3% of 200,000 active | Cruzipain (Trypanosoma cruzi), P25779 | AID 1476, 2009 | purified cruzain, Z-FR-AMC fluorescence, no detergent; active means well fitted curve in the direction sought with a large enough effect; inconclusive means small, poorly fitted or top-dose-only effect, or another doubt; inactive means no such curve, though single readings can be large; an effect the other way counts as inactive or inconclusive;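 further: plate controls were enzyme without inhibitor for no effect and buffer without enzyme for full effect; nearly all actives have a fitted effect of over 40% in size; top concentration of the series not given in the record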
#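 Detergent-free condition (0.00005% Triton X-100) in acetate buffer pH 5.5 with DTT. 1.5 nM enzyme and compound were pre-mixed 15 min, then 2 uM Z-FR-AMC substrate added; reaction progress from fluorescence change between first and third reads (60 s).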
# SARS PLpro yeast: qHTS of Yeast-based Assay for SARS-CoV PLP | Potency, µM (doses to about 32.9 µM), inactives show top-dose activity, positive = growth rescue | 0.19% of 330,000 active | AID 485353, 2010 | S. cerevisiae expressing SARS-CoV PLpro, growth rescue; control for the full effect not named in the record; further: 0% is about no effect; nearly all actives have a fitted effect of over 55% in size; growth read by luminescence after 48 h
# LASV entry inh: qHTS for Inhibitors of binding or entry into cells for Lassa Virus; Lassa virus pseudotype entry inhibition, cell reporter; control for the full effect not named in the record; Potency, µM (titrated, usually from 37.9 µM), for the others: at the top dose activity change, negative = inhibition, most hits filed as inhibitors; 1.2% of 300,000 active; AID 540256, 2011; active means well fitted inhibition curve with a large enough effect; inconclusive means small, poorly fitted or top-dose-only effect, or effect the other way; inactive means flat fitted curve, though single readings scatter; tested in HEK293 cells; further: on the % scale 0 is the no-effect control and ±100 the full control effect; nearly all actives have a fitted effect of over 50% in size; luciferase read-out
# MARV entry inh: qHTS for inhibitors of binding or entry into cells for Marburg Virus | Marburg virus pseudotyped entry inhibition, cell reporter; control for the full effect not named in the record; about a third of the inactives were read at about 46 µM | 1.8% of 300,000 active | Potency, µM (series often up to 37.8 µM), for the others: top-dose activity change, negative = inhibition, usual class: inhibitors | AID 540276, 2011; active = well fitted inhibition curve with a large enough effect; inconclusive = small, poorly fitted or top-dose-only effect, or effect the other way; inactive = flat fitted curve, though single readings scatter; tested in HEK293 cells; about a fifth of its hits are not listed in these tables; further: on the % scale 0 is the no-effect control and ±100 the full control effect; luciferase read-out
# RE007 growth inh: qHTS Assay for Inhibitors of the HIV-1 protein Vpr. AID 651644, 2012. 0.21% of 360,000 active. S. pombe RE007 Vpr strain, BacTiter-Glo ATP luminescence, 24 h; control for the full effect not named in the record. Potency, µM (series often up to 92.2 µM), for inactives: at the highest dose activity change, negative = less growth; active = well fitted falling curve with a large enough effect; inconclusive = small, poorly fitted or top-dose-only effect; inactive = no such curve, though single readings can be large or run the other way;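 further: on the % scale 0 is the no-effect control and ±100 the full control effect; nearly all actives have a fitted effect of over 50% in size; the assay follows cell death caused by Vpr and the record does not say whether a fall means rescue or toxicity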
#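 Fission yeast strain RE007, carrying one chromosomally integrated HIV-1 vpr copy, was seeded at OD 0.01 in PMG+AL medium with 23 nL pinned compound. After 24 h at 30 °C and 99% humidity, viability was read by BacTiter-Glo luminescence.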
# StopGo reporter: High Throughput Screening for Foot and Mouth Disease Virus Antivirals; 1.2% of 410,000 active; human cells with a luciferase reporter of 2A StopGo recoding; control for the full effect not named in the record; Potency, µM (titrated, usually from 57.9 µM), inactives show at the top dose signal change, negative = less light; active = well fitted falling curve with a large enough effect; inconclusive = small, poorly fitted or top-dose-only effect; inactive = no such curve, though single readings can be large or run the other way; tested in HEK293T cells; further: on the % scale 0 is the no-effect control and ±100 the full control effect; nearly all actives have a fitted effect of over 45% in size; luciferase light after 4 h
# * = called active by the depositor; ? = inconclusive; nt = not tested or not shown; & = joins results of further samples; [ ] = remark or other dose. Unless noted, the call rests on the fitted dose curve; in most records, active means well fitted rising curve with a large enough effect; inconclusive means small, poorly fitted or top-dose-only effect; inactive means no such curve, though single readings can be large or run the other way. Potency means the concentration at half of the fitted maximal effect.
SMILES,NS1 inh,Cruzain inh Det,Cruzain inh noDet,SARS PLpro yeast,LASV entry inh,MARV entry inh,RE007 growth inh,StopGo reporter
COc1ccc(N=C2NC(=O)/C(=C\c3ccco3)S2)cc1,nt,nt,nt,-1%,?,4%[46.1 µM],-21%,48%[activator]
NS(=O)(=O)c1ccc(O)c(NC(=O)c2ccc([N+](=O)[O-])cc2)c1,3%,nt,nt,0%,0%[46.1 µM],6%[46.1 µM],2%,7%
Cc1ccc(SCc2c(C(=O)N/N=C/c3ccccc3)nnn2-c2nonc2N)cc1,4%,nt,nt,0%,1%,0%,13%,?
Cc1ccc[n+](CC(=O)Nc2cc(C(F)(F)F)ccc2Cl)c1,3%,-2.9%,-1%,5%,5%,6%,-16%,nt
COc1ccc(S(=O)(=O)N(C)c2ccc(C(=O)N3CCN(c4ccccc4)CC3)cc2)cc1OC,-39%,nt,nt,5%,-29%,1%,9%,?
Cn1nccc1C(=O)Nc1nnc(C2CC2)s1,-10%,nt,nt,2%,4%[46.1 µM],27%[46.1 µM],-16%,12%
COc1ccc(NC(=O)CSc2nnnn2C)cc1S(=O)(=O)N1CCCCC1,nt,nt,nt,6%,14%,-13%,3%,-5%
CSC1=C(C#N)C(c2ccc(Cl)cc2)C2=C(CC(C)(C)CC2=O)N1 (stereo not drawn),4%,-4.5%,-14%,1%,?,?,-6%,-8%
CCOC(=O)C1=C(N)Oc2cc(C)n(C)c(=O)c2C1c1ccncc1 (stereo not drawn),1%,1.9%,1%,0%,6%,24%,2%,-27%
CN(CC(=O)NC1CC(C)(C)NC(C)(C)C1)S(=O)(=O)c1ccc(Br)cc1,1%,nt,nt,-3%,0%,-19%,5%,-24%
Cc1cc(C)c(C)c(OCC(=O)N2CCCCCC2)c1,-70%,-2.0%,2%,-6%,-9%,-11%,-6%,-10%
C=CCNC(=S)NNc1ncnc2sc3c(c12)CC(C)(C)OC3,9%,4.0%,-7%,-8%,-23%,-7%,0%,-23%
Cc1c(C(=O)N2CCN(C3CCS(=O)(=O)C3)CC2)oc2ccc(Cl)cc12 (stereo not drawn),nt,nt,nt,0%,-5%,-12%,3%,-14%
O=C(/C=C/c1c(F)cccc1Cl)Nc1nc2ccccc2[nH]1,10%,-7.7%,-26%,-1%,?,-9%,3%,54%[activator]
CCCCNC(=O)COC(=O)c1ccc(NS(=O)(=O)c2ccc3c(c2)OCCO3)cc1,-3%,-1.6%,-11%,12%,-7%,0%,-8%,17%
C=CCn1c(=NC(=O)c2cc(-c3cccs3)nc3ccccc23)sc2cc(S(N)(=O)=O)ccc21,?,-3.9%,?,5%,-1%,-12%,2%,?
Cn1c(=O)cc(-c2ccccc2)c2ccccc21,-63%,-1.2%,-1%,1%,8%,1%,-19%,11%
Cn1c(=O)oc2cc(S(=O)(=O)CCC(=O)N3CCN(c4ccccc4)CC3)ccc21,-1%,0.0%,1%,-1%,3%&15%[46.1 µM],-3%&-3%[46.1 µM],3%,54%&-18%[activator]
O=C(c1ccccc1)n1nc(-c2ccc(Cl)cc2)nc1NCc1ccco1,nt,-5.3%,5%,nt,-1%[46.1 µM],?,nt,21%
CSc1ccccc1C(=O)Nc1cc([N+](=O)[O-])ccc1C,3%,nt,nt,-1%,-29%[46.1 µM],15%[46.1 µM],-12%,-4%
COc1ccc(O)c(/C=N/N2CCOCC2)c1,4%,nt,nt,-1%,-3%,23%[46.1 µM],-3%,25%
CCOc1ccc(NC(=O)Cn2nc3c(cc2=O)CC(C)CC3)cc1 (stereo not drawn),nt,0.7%,-6%,nt,0%[46.1 µM],nt,nt,-1%
Cc1cc(=O)[nH]c2c1c(C)nn2-c1ccccc1,-10%,-0.5%,-6%,-2%,?,-4%,-7%,7%
CC(NC(=O)c1ccc2c(c1)sc1nc(-c3ccccc3)cn12)C12CC3CC(CC(C3)C1)C2 (stereo not drawn),nt,-2.6%,-4%,nt,4%[46.1 µM],nt,nt,11%
COc1cc(/C=C(\C#N)c2nc3ccc(C)cc3[nH]2)c([N+](=O)[O-])cc1OC,-74%,-5.8%,?,-11%,?,?,-2%,-22%
CC(=O)CCS(=O)(=O)c1ccc(C)c(C)c1,-5%,0.9%,1%,-4%,25%,-16%,2%,-10%
CC(C)N1C(=O)CCN(C=O)c2ccccc21,nt,nt,nt,-6%,-4%,15%,-11%,-7%
CCOc1ccccc1/C=C/c1onc(C)c1S(=O)(=O)N1CCC(C(=O)NC(C)C)CC1,5%,nt,nt,-2%,nt,nt,-9%,-7%
COc1ccc(OC)c(N(C(=O)c2snc(C(N)=O)c2N)C(C(=O)NCC2CCCO2)c2ccc3ncccc3c2)c1 (stereo not drawn),-27%,nt,nt,0%,?,-23%[46.1 µM],6%,38%[activator]
COCCNc1nc2nonc2nc1N(C)Cc1cccc2cnccc12,0%,nt,nt,-1%,6%,-10%[46.1 µM],19%,-25%
CC(=O)Nc1ccc(N/C=C/C(=O)c2ccco2)cc1,-9%,-6.4%,-13%,-20%,-9%,5%,-12%,26%
COc1ccc(C2=NOC(C(=O)Nc3c(C)n(C)n(-c4ccccc4)c3=O)C2)cc1OC (stereo not drawn),-1%,-0.4%,-3%,11%,nt,6%,16%,-10%
Cc1ccc(C(=O)NCc2ccncc2)cc1S(=O)(=O)N1CCCCC1,4%,nt,nt,-5%,-2%,-24%,1%,9%
NC(=O)CNC(=O)[C@@H]1CC2(CC(c3ccc(Cl)cc3)=NO2)CN1C(=O)c1ccccc1 (stereo partly drawn),-8%,0.2%,?,12%,nt,nt,5%,11%
COC(=O)C1CCN(C(=O)COC(=O)c2cc(-c3cccs3)nn2-c2ccccc2)CC1,nt,nt,nt,-12%,1%,2%,-4%,-12%
CC(C)(C)NC(=O)NC(=O)CSc1ncc(C(F)(F)F)cc1Cl,-9%,-4.8%,-10%,12%,-10%,?,9%,-16%
Cn1c(=O)c2c(nc(CN3CCN(C(=O)c4ccco4)CC3)n2CCCc2ccccc2)n(C)c1=O,0%,1.7%,?,-3%,nt,nt,1%,-18%
CSc1nnnn1-c1ccc(Cl)cc1,5%,nt,nt,0%,-17%,5%[46.1 µM],5%,-2%
CC1(CCc2ccccc2)NC(=O)N(Cc2nnc(-c3ccccc3Br)o2)C1=O (stereo not drawn),-14%,0.1%,19%,-2%,1%,2%,14%,-19%
COC(=O)c1ccc(C)c(NS(=O)(=O)c2ccc(OC)cc2)c1,-7%,0.8%,-4%,-12%,?,nt,3%,35%[activator]
CCC1(CC)C(=O)N(C)C(=O)NC1=NC,4%,nt,nt,-1%,?,-1%,3%,-15%
COc1ccc(-c2cn3c(C)c(C(=O)Nc4cccc(C)n4)sc3n2)cc1,1%,-13%,?,-8%,?,?,5%,-15%
CCOc1ccccc1Nc1ncnc2c1c(-c1ccccc1)cn2-c1ccc(OC)cc1,nt,0.6%,10µM*,nt,8%[46.1 µM],nt,nt,-23%
Cc1noc(-c2ccc(-c3noc(-c4ccc(C(F)(F)F)cc4)n3)cc2)n1,nt,5.8%,-12%,nt,-4%[46.1 µM],nt,nt,-2%
COc1cc(CNCCc2ccccc2)ccc1OCC(=O)NC(C)(C)C,-18%,6.3%,-2%,8%,-10%,11µM*,-14%,-9%
Cc1ccc(CC(=O)NC2CCSC2=O)cc1 (stereo not drawn),3%,nt,nt,0%,nt,nt,-1%,0%
O=C(O)CCCCCn1c(SCC(=O)N2CCCC2)nc2ccsc2c1=O,-15%,4.0%,-1%,-1%,14%,1%,-13%,-12%
CCN(CC(=O)Nc1c(F)cccc1F)C(=O)c1ccc2c(c1)NC(=O)C(C)S2 (stereo not drawn),nt,nt,nt,8%,4%,14%,-1%,-7%
CCCn1c(=O)c(C(=O)Nc2ccccc2)c(O)c2ccccc21,-3%,-6.8%,-25%,-1%,9%,-1%,3%,-23%
CCN(CC)S(=O)(=O)c1ccc(NC(=O)COC(=O)CNS(=O)(=O)/C=C/c2ccccc2)cc1,-28%,-26%,-19%,-13%,-12%,?,8%,-10%
COc1ccc(/C=C/C(=O)NCc2cccnc2)cc1,-1%,-3.3%,-8%,-3%,23%,-1%,12%,24%
COc1cc(C(=O)Nc2ccccc2C(=O)Nc2ccccn2)cc(OC)c1OC,-42%,nt,nt,1%,nt,nt,2%,?
COCc1ccc(C(=O)N2CCCC(N3CCN(c4ccc(F)cc4)CC3)C2)o1 (stereo not drawn),-1%,nt,nt,-2%,?,-28%,-12%,?
CCCc1c(C(=O)N/N=C/c2c(OC)ccc3ccccc23)nnn1-c1nonc1N,-2%,nt,nt,1%,nt,nt,2%,-28%
Cc1[nH]c2ccccc2c1C(=O)C(=O)NCCc1ccc(S(N)(=O)=O)cc1,6%,-2.1%,3%,9%,1%,?,-9%,-13%
COC(=O)c1nnc(-c2ccccc2)nc1OC,-1%,0.2%,-5%,-4%,1%,-10%[46.1 µM],-26%,8%
C=CCNC(=O)c1c(Cl)nc(C)c([N+](=O)[O-])c1C,9%,-0.7%,0%,10%,-1%,5%,-3%,18%
Cc1cccc(NCc2nc(SCC(N)=O)n[nH]2)c1,-19%,1.1%,-8%,5%,22%,4%,14%,14%
Cc1[nH]c2ccccc2c1CCNC(=O)c1c(N)no[n+]1[O-],nt,nt,nt,-2%,-12%,7%[46.1 µM],-6%,-6%
O=C(CCc1ccccc1)N/N=C/c1cccc(O)c1,-3%,nt,nt,-1%,nt,nt,5%,12%
# The listing continues.
SMILES,NS1 inh,Cruzain inh Det,Cruzain inh noDet,SARS PLpro yeast,LASV entry inh,MARV entry inh,RE007 growth inh,StopGo reporter
Cc1cc(CN2CCN(CC(=O)Nc3cc(Cl)ccc3-n3cncn3)CC2)no1,nt,nt,nt,1%,0%,10%,1%,-22%
Cc1ccc(NC(=O)CSCc2cc(=O)n3nc(C4CC4)sc3n2)cc1,4%,nt,nt,-2%,nt,nt,-7%,-10%
Cc1ccc(S(=O)(=O)c2c(N)n(CCN3CCOCC3)c3nc4ccccc4nc23)cc1C,-14%,-5.6%,?,8%,0%,28%[46.1 µM],-19%,17%
COc1cc(C(=O)CCc2ccc3c(c2)OCO3)cc(OC)c1OC,nt,nt,nt,nt,-1%[46.1 µM],-20%[46.1 µM],5%,-29%

# From PubChem BioAssay
